NPYLR7 agonist: agonists of mosquito NPYLR7 receptor, primary screen, cell-based, Aedes aegypti, calcium fluorescence, mosquito biting behavior. HEK293T NPYLR7/Galpha15, GCaMP6s calcium fluorescence. activation, % at 10 µM. AID 1259423, 2018. 270,000 tested, 0.15% active; in the data active = activation above about 40%;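 note: 0% = vehicle and 100% = reference agonist at the receptor; some compounds past the cut are filed as inactive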
NPYLR7 agonist max-min: recorded beside NPYLR7 agonist, whose call it bears; activation, %; measured here: Max-Min RFU normalised activation; some inactives read as strong as hits;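 span of the calcium signal over five minutes; 0% = vehicle and 100% = native peptide agonist; compound fluorescence can raise it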
Starred values were filed as active, the others as inactive; & = joins results of further samples.

Values in the order – NPYLR7 agonist, NPYLR7 agonist max-min
- CSc1ccccc1NC(=O)CCC(=O)N1C[C@H](OC(C)C)[C@@H](O)C1
 : 20, 12
- CCCn1c(N)c(C(=O)CSc2nncn2C)c(=O)[nH]c1=O
 : 11, 7
- Cc1ccc(NC(c2ccc(F)c(F)c2)P(=O)(O)O)cc1 (stereo unspecified)
 : 4, 2
- c1ccc(C2CCCN2Cc2nc(-c3ccc4c(c3)OCO4)no2)nc1 (stereo unspecified)
 : -5&-2, -5&-6
- CCC(NC(=O)C1(C)CC1(Br)Br)c1ccc(C)cc1 (stereo unspecified)
 : 5, 5
- O=C(c1cc(F)cc(F)c1)N1CCN(S(=O)(=O)c2ccc3c(c2)OCCCO3)CC1
 : 4, -1
- CCOc1cc2c(cc1/C=C/c1n[nH]c(=O)c(C#N)c1C)OC(C)C2 (stereo unspecified)
 : 8&6, 6&8
- CCc1ccsc1C(=O)N1CC[C@@H](O)C1
 : -3, -6
- CN(Cc1cc2c(cc1Br)OCCO2)S(=O)(=O)c1cccs1
 : 0, 3
- O=C(O)c1nn2c(c1Br)NC(c1cccs1)CC2C(F)(F)F (stereo unspecified)
 : 5, 0
- COc1cc2c(cc1-c1nccn1Cc1ccc(S(N)(=O)=O)cc1)CCC2
 : 10, 2
- CCOC(=O)c1c(N)sc(C(=O)Nc2ccccc2F)c1C
 : 2, 4
- N#Cc1ccccc1C(=O)N1CCOC(Cc2ccccc2)C1 (stereo unspecified)
 : 5, 14
- O=C(NCCCN1CCCC1=O)c1c(O)nc2sccn2c1=O
 : -1, 2
- CC1=NN(c2cccc(C(=O)O)c2)C(=O)/C1=C\c1ccc(-c2cccc(C(=O)O)c2)o1
 : -7, -9
- Cc1ccc(N2C(=O)CSC2c2ccc(NS(=O)(=O)c3ccc(Cl)cc3)cc2)cc1C (stereo unspecified)
 : 0, 1
- O=C(CSc1ccc(NC(=O)c2ccccc2)nn1)NCC1CCCO1 (stereo unspecified)
 : 1, 2
- CCOc1ccc(C(=O)NC(C(=O)N2CCN(CC(=O)N(C)C)CC2)C(C)C)cc1 (stereo unspecified)
 : 2, 8
- CCCCN(C)C(=O)c1sc(=O)n(Cc2ccc(F)c(Cl)c2)c1C
 : 9, 6
- Cc1c(C(=O)O)sc2ncnc(NC(c3nccn3C)C(C)C)c12 (stereo unspecified)
 : 12, 1
- Cc1nc2c(c(N(C)C)n1)CCN(C(=O)c1cc(-c3ccccc3O)n[nH]1)C2
 : -1, 6
- CCCN1CCC(C(=O)NC(C)c2ccc(OC)c(OC)c2)CC1 (stereo unspecified)
 : 29, 19
- Cc1cnc2n(c1=O)C(CC(=O)Nc1ccccn1)CS2 (stereo unspecified)
 : -1, -4
- Cc1cc(C(=O)O)c(C)s1
 : 2, 5
- COc1ccccc1/C=C/C1=NC(=C\c2ccc(C(C)C)cc2)/C(=O)O1
 : 2, -2
- CCN(CC)C(=O)CN1CCCCC1c1nc2ccc(F)cc2[nH]1 (stereo unspecified)
 : -4, -5
- CC(CCC(C)(C)C)NC(=O)N1CCS(=O)(=O)CC1 (stereo unspecified)
 : -2, -3
- O=C1c2c(O)cc(O)cc2OC(c2ccc(O)c(O)c2)C1O (stereo unspecified)
 : 1&1, 1&7
- O=c1c2ccccc2cnn1-c1ccc2ccccc2c1
 : 2, 58
- c1ccc(-n2nnc3c(N4CCNCC4)ncnc32)cc1
 : -4, -5
- Cc1sc2nc(CN3CCOCC3)[nH]c(=O)c2c1C
 : 2, 11
- COc1cccc2cc(-c3csc(Nc4cc(C(F)(F)F)ccc4Cl)n3)c(=O)oc12
 : -7, -12
- COc1ccc(-n2cc(-c3ccccc3)c3c(Cl)ncnc32)cc1
 : -4, -9
- Cc1cc(CN2C(=O)c3cnc(C(C)(C)C)nc3C[C@H]2C)no1
 : 24, 15
- Nc1ncnc2c1ncn2C1CCCO1 (stereo unspecified)
 : 1, 21
- CCS(=O)(=O)c1ccccc1C(=O)N(Cc1ccccn1)c1nc2c(C)cccc2s1
 : -6, -9
- COc1cccc(-c2nn(-c3ccccc3)cc2CN2CCN(c3ccc(O)cc3)CC2)c1
 : 12, -3
- COc1ccc(C(=O)Nc2ccnn2C2CCN(C(=O)C#Cc3ccccc3)CC2)cc1
 : 11, 5
- O=C(NCCC1=CCCCC1)C1CCC(=O)N(Cc2ccc(Cl)cc2)C1 (stereo unspecified)
 : 7, 3
- CCCCNC(=O)CSc1nc(C)c(C(=O)OCC)cc1C#N
 : 1, -2
- CN(CCN1CCc2ccccc2C1)c1nc2nonc2nc1N1CCOCC1
 : 13&-1, 6&-7
- CCCc1nc(N2CCCN(C(=O)c3ccc(F)cc3)CC2)c2c(-c3ccccc3)noc2n1
 : 7, -3
- Cc1cc(Oc2ccccc2F)nc(SCc2ccccc2C#N)n1
 : 4, 2
- CCc1ccc(-n2c(C(CC)N(Cc3ccccc3)C(=O)c3ccc(Cl)c(Cl)c3)nc3ccccc3c2=O)cc1 (stereo unspecified)
 : -3, -7
- CCCn1c(=NC(=O)c2ccc3ncsc3c2)sc2cc(S(C)(=O)=O)ccc21
 : 0, 1
- CCOCCOc1nc(-c2ccc(C)cc2)n(-c2ccc(NC(=O)c3ccco3)cc2)n1
 : 11, 16
- Cc1ccc(-n2c(C3CC3)n[nH]c2=S)cc1
 : -5, -2
- CCc1cc2c(cc1C(C)NC(=O)Cc1ccccc1)OCCO2 (stereo unspecified)
 : 5, 4
- CC(c1ccc(-c2cccc(F)c2C(N)=O)cc1)N1CCCCC1 (stereo unspecified)
 : -7, -4
- Cc1cccnc1C(NC(=O)C1CCN(CCOc2ccccc2)CC1)c1ccc(Cl)cc1 (stereo unspecified)
 : 15, 3
- O=C(CCC1Cc2ccccc2NC1=O)Nc1ccc(Cl)nc1 (stereo unspecified)
 : 6, 4
- COc1ccc(/C=C/C(=O)Nc2c3c(nn2-c2ccc(Cl)cc2)CSC3)cc1OC
 : -3, -5
- COCCN(Cc1c(-c2ccccc2)noc1N1CCSCC1)C(=O)COC
 : 7, 8
- OCCC1CN(Cc2cn[nH]c2C2CCCCC2)CCN1Cc1ccsc1 (stereo unspecified)
 : 0, -4
- CCc1ccc(OC)c(S(=O)(=O)n2cc(C)nc2-c2ccccc2)c1
 : 2, 0
- Cc1nn(C(C)C(=O)NC(C)C)c(=O)c2cc3occc3n12 (stereo unspecified)
 : 7, 4
- N=C1CCn2nc3c(c2=N1)=C1Sc2ccccc2N1CCC3
 : -7, -12
- O=S(=O)(c1c(Cl)cc(Br)cc1Cl)N1CCCSCC1
 : 4, 4
- Cc1nc(-c2ccc3c(c2)OCO3)cs1
 : 2, -1
- Cc1cccc(C(=O)NNC(=O)CCCCCN2C(=O)c3ccccc3C2=O)c1
 : -3, -7

Single records, from the list above. Order of values: NPYLR7 agonist, NPYLR7 agonist max-min
COc1cccc(-c2nn(-c3ccccc3)cc2CN2CCN(c3ccc(O)cc3)CC2)c1 as listed: 12, -3
CC(c1ccc(-c2cccc(F)c2C(N)=O)cc1)N1CCCCC1 (stereo unspecified) as listed: -7, -4

2 entries drawn at random from those above:
Values in the order – NPYLR7 agonist, NPYLR7 agonist max-min
- Cc1nc2c(c(N(C)C)n1)CCN(C(=O)c1cc(-c3ccccc3O)n[nH]1)C2
 : -1, 6
- COc1ccc(/C=C/C(=O)Nc2c3c(nn2-c2ccc(Cl)cc2)CSC3)cc1OC
 : -3, -5

Some of the entries so far, as labelled records.
> Cc1ccc(NC(c2ccc(F)c(F)c2)P(=O)(O)O)cc1 (stereo unspecified)
  NPYLR7 agonist = 4; NPYLR7 agonist max-min = 2

> CCOC(=O)c1c(N)sc(C(=O)Nc2ccccc2F)c1C
  NPYLR7 agonist = 2; NPYLR7 agonist max-min = 4

> CSc1ccccc1NC(=O)CCC(=O)N1C[C@H](OC(C)C)[C@@H](O)C1
  NPYLR7 agonist = 20; NPYLR7 agonist max-min = 12

> c1ccc(-n2nnc3c(N4CCNCC4)ncnc32)cc1
  NPYLR7 agonist = -4; NPYLR7 agonist max-min = -5

(cont.)
Values in the order – NPYLR7 agonist, NPYLR7 agonist max-min
- COc1ccc(Cn2c(-c3cc(C)c(OC)cc3C)nc3ccccc3c2=O)c(OC)c1
 : 5, 1
- N#CC(C#N)C=Nc1ccncc1
 : 20, 22
- Cn1ccnc1C(NS(=O)(=O)c1ccccc1Br)c1ccc(Cl)cc1 (stereo unspecified)
 : 16, 6
- COc1ccc(OC)c(NC(=O)CSc2nnc(C)c3cnn(-c4ccccc4OC)c23)c1
 : -6, -13
- COc1cccc(-c2nnc(SCC(=O)NC3CC3)n2C)c1
 : -1, 15
- COc1ccc(S(=O)(=O)NC(=O)C2(C)CCN2C(=O)Cc2cc(C)cc(C)c2)cc1OC (stereo unspecified)
 : 5, 3
- Cn1nc(C2CCN(C(=O)c3ccncn3)CC2)n(Cc2ccccc2)c1=O
 : 9, 6
- CCCCc1nc(N2CCN(C(=O)C(CC)c3ccccc3)CC2)c2c(-c3ccc4ccccc4c3)noc2n1 (stereo unspecified)
 : 15, 5
- O=C(Cc1cn2ccsc2n1)NCCc1nc2c(s1)CCCC2
 : -6, -6
- CCc1nc(CN2CCCC(C(=O)Nc3ccc(-c4cccc(OC)c4)cc3)C2)c(C)[nH]1 (stereo unspecified)
 : -7, -9
- Cc1ccc2c(CC(=O)N3CCc4c([nH]c5ccccc45)C3c3ccccn3)cc(=O)oc2c1 (stereo unspecified)
 : 0&-15, -3&-20
- C=CCNC(CC(=O)Nc1c(C)cc(C)cc1C)C(=O)O (stereo unspecified)
 : 0, -1
- COC(=O)C(c1ccc(OC)cc1)C1C=CC(NC(=O)c2ccc(OC)c(C(F)(F)F)c2)C1 (stereo unspecified)
 : 2, -2
- COc1ccccc1Cn1c(C)c(C(=O)NCc2ccc3c(c2)OCO3)sc1=O
 : 13, 4
- Cc1cc(-c2nnc(CCC(=O)NC(C)c3ccc(F)cc3)o2)no1 (stereo unspecified)
 : 1, -2
- O=C(c1ccc(CSc2nc(Cl)cc(N(CCc3ccccc3)Cc3ccccc3)n2)cc1)N1CCN(c2ccccc2F)CC1
 : 19, 24
- Cn1nc(N2CCc3ccccc3C2)c(=O)n(C)c1=O
 : 1, 25
- COc1cccc(C(=O)N(Cc2cccnc2)c2nc3ccc(Cl)cc3s2)c1
 : -7, 0
- S=c1[nH]cc(-c2ccccc2)n1C1CC1
 : 5, 1
- O=C(c1ccccc1)N1CCC(NCCSc2ncn[nH]2)CC1
 : 0, -3
- Cc1[nH]cnc1CN1CCC(CNC(=O)NC(C)(C)C)C1 (stereo unspecified)
 : -1, -5
- O=c1c2c(-c3ccccc3)n3ncnc3nc2ccn1-c1ccc2c(c1)OCCO2
 : -12, -15
- CN(C)c1ccc(/C=C(\C#N)c2nn(CCO)c(N)c2C#N)cc1[N+](=O)[O-]
 : 5, 4
- O=C(Cc1csc(NC(=O)c2ccc[nH]c2=O)n1)NCC1CCCO1 (stereo unspecified)
 : 1, 5
- Nc1cc(-c2cccc(C(F)(F)F)c2)nn1-c1ccc(C(=O)NCCc2ccccc2F)cc1
 : -9, -14
- c1ccc(Cn2c(C3CCCO3)nc3ccccc32)cc1 (stereo unspecified)
 : -1&4, -3&1
- CCn1c(SCC(=O)c2ccccc2F)nnc1-c1cccc(OC)c1
 : 7, 12
- CN(C)c1ccc(NC(=O)C2CCCC2)cc1CN(Cc1cccc(F)c1)C(=O)c1ccco1
 : -10, 0
- N=C1/C(=C/c2ccc(OCCOc3ccccc3)c(Br)c2)C(=O)N=C2SC=CN12
 : 2, 2
- Oc1cc2c(cc1CN1CCN(c3ccc(C(F)(F)F)cn3)CC1)CCC2
 : 3, 10
- COCCOC1CCCN(C(=O)c2cccc(Br)c2)C1 (stereo unspecified)
 : -7, 4
- COC(=O)CC1(NC(=O)c2ccc(Cl)cc2)CCN(C)CC1
 : 4, 2
- Nn1nnc2ccccc21
 : 4, -9
- CC(C)(C)CC(C)(C)Nc1c(-c2ccc(C(F)(F)F)cc2)nc2ccc(Br)cn12
 : 25, 32
- CNC(=O)[C@@]1(OCc2cccc(Cl)c2)CC(OCc2ccc(F)cc2)[C@@H]2OC(C)(C)O[C@@H]2C1 (stereo partly specified)
 : 6, 9
- CC(=O)Cn1c(CN(Cc2ccccc2)Cc2ccccc2)nc2c1c(=O)n(C)c(=O)n2C
 : -12, -11
- O=C(c1c(F)c(F)cc(F)c1F)N1CCC(CCc2ccc3c(c2)OCO3)CC1
 : 13, -2
- O=C(C1=NOC(c2ccccc2)C1)N1CCC(Nc2ccccc2)CC1 (stereo unspecified)
 : 6, 3
- Nc1nonc1-c1noc(COc2ccc(Br)cc2)n1
 : 2, -1
- COc1ccc(CN2CCN(Cc3cc4ccccc4o3)CC2CCO)cc1C (stereo unspecified)
 : 6, 3
- COc1ccccc1OCCn1c(C2CC(=O)N(Cc3ccccc3)C2)nc2ccccc21 (stereo unspecified)
 : 0, -3
- O=C(c1cc(-c2ccccc2)nc2ccccc12)N1CCN(c2ccc(F)cc2)CC1
 : -5, -6
- CCN(C(=O)CN1CCSC2(CCCCC2)C1)C1CC1
 : 3, 1
- CC1CCc2c(C(=O)NC(C)Cn3ccnc3)csc2C1 (stereo unspecified)
 : 4, 1
- O=C(NCCc1nc2ccccc2n1Cc1ccc(Cl)cc1)c1ccco1
 : -3, 1
- Cc1ccc2nc(SCc3cccc4ccccc34)nc(=O)n2c1
 : 4, 2
- CSc1ccc(C2c3c(n[nH]c3-c3ccccc3)OC(=N)C2C#N)cc1 (stereo unspecified)
 : 2, -2
- O=C(CSc1nc(Cl)cc(N2CCN(C(=O)C3CCCC3)CC2)n1)N1CCN(Cc2ccccc2)CC1
 : -10, -10

Not all compounds are listed, so the mix of outcomes need not match the whole.
